Bioassay records: PubChem BioAssay, ICCB-Longwood Screening Facility, Harvard Medical School
AID504770 – growth inhibitors of E. coli YBA685 in a screen for V. cholerae RctB (chromosome II replication) inhibitors; E. coli YBA685 rctB-dependent plasmid, OD600 growth, 3 h; hits give low values; z-score (concentration not given with the values); hit rate 0.27% among 130,000; AID 504770;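 active means z-score under -2 on both plates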;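 further: wells of about 30 µL received 100 nL stock; score is relative to mean and SD of the test wells; the first replicate is given; strong numbers were not always called active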
CapD inh – blocks the Bacillus anthracis CapD enzyme. purified CapD enzyme, fluorescence intensity read-out; hits give low values; some hits fall short of the stated cut. z-score (test concentration not listed). hit rate 0.23% among 140,000;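 active means z-score under -4 in either of two replicates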;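 further: stock transfer was 100 nL into about 40 µL; score is relative to mean and spread of the plate; one replicate is shown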
Numbers without * were called inactive; nt = not tested or not shown. Only part of the results is shown (hit frequency here may not be typical).

The opening seven compounds (preview)
SMILES	AID504770	CapD inh
CCc1nn2c(=O)cc(N3CCN(c4cc(C)nc5ccccc45)CC3)nc2s1	2.3	0.08
Cc1cc(C)n2cc(CN3CCc4ccccc4C3)nc2n1	-0.75	nt
O=C(O)c1cc(-c2cccs2)nn1-c1cccc(Cl)c1	-0.6	nt
COc1ccc2c(c1)sc1ncc(C(=O)NCC(C)c3ccccc3)c(=O)n12 (stereo not drawn)	1.5	18
O=C(CCn1cccc1)N1CCc2ccccc21	1	6.2
O=C(O)CSc1ccccc1Cl	1	nt
Cc1ccc(C)n1-c1ccc(-c2nc3ccccc3[nH]2)cc1	0.05	nt

All compounds of this part (from the top)
SMILES	AID504770	CapD inh
CCc1nn2c(=O)cc(N3CCN(c4cc(C)nc5ccccc45)CC3)nc2s1	2.3	0.08
Cc1cc(C)n2cc(CN3CCc4ccccc4C3)nc2n1	-0.75	nt
O=C(O)c1cc(-c2cccs2)nn1-c1cccc(Cl)c1	-0.6	nt
COc1ccc2c(c1)sc1ncc(C(=O)NCC(C)c3ccccc3)c(=O)n12 (stereo not drawn)	1.5	18
O=C(CCn1cccc1)N1CCc2ccccc21	1	6.2
O=C(O)CSc1ccccc1Cl	1	nt
Cc1ccc(C)n1-c1ccc(-c2nc3ccccc3[nH]2)cc1	0.05	nt
Cn1c(=O)c2c(nc(CN(Cc3ccccc3)Cc3ccccc3)n2CC(N)=O)n(C)c1=O	nt	-0.32
CCOC(=O)c1cc(C)n(Cc2ccccc2)c1C	-1.1	-0.65
Cc1ccc(C(C)C)c(OCCN)c1	-0.2	0.69
N#CC(C(=O)N1CCCC1)C(=S)Nc1ccccc1Cl (stereo not drawn)	0.05	-1.4
Cc1ccc(CNC(=O)c2cccc(Cn3cc(Cl)cn3)c2)cc1	1.8	-0.6
Cc1cc(C(=O)O)ccc1-n1c(C)cc(C=Nc2ccc(N3CCOCC3)cc2)c1C	-0.05	-0.81
CC1=C(C(=O)O)N2C(=O)[C@@H](NC(=O)[C@H](N)C3=CCC=CC3)[C@H]2SC1	nt	0.17
COc1ccccc1N1CCN(S(=O)(=O)c2ccc(F)c(C(=O)Nc3cccc(Cl)c3C)c2)CC1	nt	-0.28
OC1(c2ccccc2)CN(c2ccccc2)C2=[N+]1CCCS2 (stereo not drawn)	nt	4.3
O=C(O)C1CC=CCC1C(=O)N1CCN(C(c2ccccc2)c2ccc(Cl)cc2)CC1 (stereo not drawn)	nt	-0.37
COc1ccccc1C(=O)Nc1sccc1C(N)=O	0.1	nt
CCOC(=O)c1c(N)sc2c1CCC2	-0.4	-2
O=C(CCSc1nc(-c2ccco2)cc(C(F)(F)F)n1)N1CCCc2ccccc21	-0.3	-0.21
Cc1ccc(C2C3=C(CCCC3=O)NC3=C2C(=O)c2ccccc23)cc1 (stereo not drawn)	-0.2	-0.01
CCn1ccc(C(=O)Nc2ccc(C)c(C)c2)n1	-0.6	-0.32
Cc1cc(NC(=O)CC(C)(C)CC(=O)O)n(C)n1	0.75	0.19
CC(C)(CC(=O)O)CC(=O)Nc1ccc2c(c1)C(=O)OC2	-0.25	-0.71
Cc1cc(C(=O)N/N=C/C(C)(C)C)nn1-c1ccc(C(C)C)cc1	-0.55	0.22
CCOc1ccc(S(=O)(=O)NCCC(=O)NC2CCC(C)CC2)cc1 (stereo not drawn)	-1.1	nt
COC(=O)CCSc1nc2c(c(=O)[nH]1)C(C)(C1CCCCC1)Cc1ccccc1-2 (stereo not drawn)	nt	0.73
COc1ccc(/C=C/C(=O)OCC(=O)Nc2cccc(C(F)(F)F)c2)cc1	0.35	0.54
O=C1CC(c2ccc(Cl)cc2)CC(=O)C1/C=N\OCc1nnsc1Cl (stereo not drawn)	nt	-0.9
O=c1nc(Nc2ccccc2)oc2ccccc12	-0.6	0.74
Cc1nc(-c2ccccn2)nc(SCC(=O)N2CCOCC2)c1Cl	-1.2	-1.1
CCc1cc2c(C)cc(=O)oc2cc1OCC(=O)NC1CCCCC1	0.4	17
Cc1cc(C)nc(N2CCN(c3nc(C)cc(C)n3)CC2)n1	nt	-0.56
O=C(Cc1ccc(Cl)cc1)OCC(=O)c1cc2ccccc2o1	0.15	85
O=[N+]([O-])/C(C(Cl)=C(Cl)Cl)=C(/Sc1ccccc1)N1CCOCC1	nt	-0.68
CCOC(=O)/C=C1\NC(C)(C)Cc2cc(OC)c(O)cc21	-0.15	-3.2

Grouped by structure, the entries above containing a furan ring, fused or not.
SMILES	AID504770	CapD inh
O=C(CCSc1nc(-c2ccco2)cc(C(F)(F)F)n1)N1CCCc2ccccc21	-0.3	-0.21
O=C(Cc1ccc(Cl)cc1)OCC(=O)c1cc2ccccc2o1	0.15	85

Additional structures.
SMILES	AID504770	CapD inh
Cc1ccc(O)c(C2N(Cc3ccccc3O)CCN2Cc2ccccc2O)c1	nt	-0.58
Cc1cc(COC(=O)Nc2ccc(Cl)cc2)no1	-1.4	-0.08
O=C(Cc1ccccc1)Oc1cccc2cccnc12	-0.4	-0.49
FC(F)(F)c1cc(-c2ccc3c(c2)OCO3)n[nH]1	nt	-0.47
OC(CNCc1ccccc1)(c1ccc(Cl)cc1)c1ccc(Cl)cc1	nt	-0.23
O=C(Nc1cccc(Cl)c1)c1nn2c(c1Br)NC(c1cccs1)CC2C(F)(F)F (stereo not drawn)	nt	0.33
Cc1ccccc1OCc1nc(-c2ccc(NC(=O)c3cccs3)cc2)no1	nt	0.32
COc1ccc(CN(Cc2ccc(OC)cc2)C(=O)Nc2ccc(Cl)cc2)cc1	nt	-0.65
COc1cc(C)c2c(c1)CCC1C2CCC2(C)C(O)CCC12 (stereo not drawn)	0.15	0.05
Cc1nc(N2CCN(C)CC2)c2c(C)c(C(=O)Nc3ccccc3Cl)sc2n1	nt	1.8
CN(Cc1cccs1)Cc1nc2scc(-c3ccccc3)c2c(=O)n1CC#N	0	nt
CC(C)N1CCN(Cc2ccc3ccccc3c2)CC1	-0.95	-0.15
CCSCCOC(=O)C1=C(C)NC2=C(C(=O)CC(c3cccs3)C2)C1c1coc2ccc(C)cc2c1=O (stereo not drawn)	nt	-0.055
CC(C)(CO)NC(=O)COc1ccc(Cl)cc1Cl	-0.65	0.24
Nc1ccc(C(=O)c2ccccc2C(=O)O)cc1Cl	-0.25	-1.4
CC(=O)N(O)CC(=O)Nc1ccccc1C(=O)c1ccccc1	nt	0.58
CCOC(=O)/C=C1\SCC(=O)N1Cc1ccc(C)cc1	-2.3	nt
Cc1cc(F)ccc1S(=O)(=O)N1CCCCC1CCNC(=O)NC1CCCCC1 (stereo not drawn)	-1.2	nt
CC(O)CNC(=O)COc1ccccc1 (stereo not drawn)	-0.5	-0.6
COc1ccc(S(=O)(=O)NCc2cccnc2)cc1-c1nnc2c3ccccc3c(C)nn12	1.9	0.94
C=C1SC(Nc2ccccc2OC)=NC1(C)C	nt	0.43
O=S(=O)(Nc1ccccn1)c1ccc(Cl)cc1	-0.85	14
O=c1c2ccccc2nc2sc(Nc3c(F)cccc3F)nn12	-0.55	0.31
O=C(Nc1nnc(C2CC2)s1)c1ccc2c(c1)S(=O)(=O)c1ccccc1C2=O	-0.05	nt
Cn1c(=O)c2c(nc(CN3CCOCC3)n2CC(=O)C(C)(C)C)n(C)c1=O	0.9	-0.33
Cc1nn(C)c(C)c1S(=O)(=O)N1CCN(c2ccccc2)CC1	-0.75	0.57
Cc1ccc(S(=O)(=O)N2CC=C(C(=O)NC3CCCC3)CC2)cc1	1.5	0.6
COc1cc(OC)nc(CSc2ncc(C(=O)N3CCN(CC(=O)N4CCOCC4)CC3)n2C)n1	nt	-0.4
COc1ccccc1CC(=O)NC(C)C1CCCO1 (stereo not drawn)	-0.2	0.45
Cc1cc(=O)n2[nH]c(C34CC5CC(CC(C5)C3)C4)nc2n1	-0.85	-0.025
O=C(Cn1cnc2sc3c(c2c1=O)CCCC3)NCC(=O)N1CCN(c2ccccc2)CC1	nt	-0.69
O=C(NC1CCC(O)CC1)c1ccc(S(=O)(=O)N2CCCc3ccccc32)cc1 (stereo not drawn)	0.1	nt
O=C(NC(Cc1ccccc1)C(=O)Nc1ccc([N+](=O)[O-])cc1)OCCc1ccccc1Cl (stereo not drawn)	nt	-0.9
CC1(O)c2ccccc2-c2ccccc21	nt	0.045
Cc1c(CC(=O)N2CCCC2)c(=O)oc2cc3occ(C(C)(C)C)c3cc12	-0.95	5.7
Fc1ccc(-c2nc3ccccc3nc2-c2ccccc2)cc1	nt	3.8
Cc1nc(SCC(=O)Nc2nccs2)[nH]c(=O)c1C	-0.9	nt
Cc1ccc2cc(CN(Cc3cccs3)Cc3nnnn3C(C)(C)C)c3nnnn3c2c1	-0.5	nt
CSC(=Nc1ccccc1F)N1CCCCC1	nt	1
N#Cc1cccc(Nc2c3c(nc4ccccc24)CCC3)c1	-0.4	22
CC(C)C(=O)Nc1nc2c(ncn2C2OC(CO)C(O)C2O)c(=O)[nH]1 (stereo not drawn)	0.05	0.36
Cc1ccc(S(=O)(=O)N(CCC(=O)O)Cc2ccccc2)cc1	2	0.51
Cc1cc(C(F)(F)F)nc(Sc2nc(C)cc(C)c2C#N)n1	0.65	0.65
CCc1ccccc1NC(=O)N1CCN2CCCCC2C1 (stereo not drawn)	-0.25	-0.66
O=S(=O)(Nc1ccc(CN2CCCCC2)cc1)c1ccc(-n2cccn2)cc1	0.6	-0.4
CC(=O)Nc1ccc(S(=O)(=O)NCc2cccn2Cc2ccc(F)cc2)cc1	0.75	0.31
O=S1(=O)C=CC(Nc2cccc3ccccc23)C1 (stereo not drawn)	-0.5	3.6
O=C(Nc1ccccc1)N1CCc2c([nH]c3ccccc23)C1C(F)(F)F (stereo not drawn)	0.95	-0.01
[O-][n+]1ccccc1OCc1ccc(Cl)cc1	-0.25	nt
FC(F)(F)c1ccc(N2CCSCC2)nc1	-1.1	5.1
O=C1CC(c2ccccc2)CN1S(=O)(=O)c1ccccc1 (stereo not drawn)	-0.6	-0.32
O=C(CCCn1c2ccccc2c2cn[nH]c(=O)c21)NCCc1ccccc1	-0.55	-0.04
CN(C1CCCCC1)S(=O)(=O)c1cccs1	-0.3	0.66
COc1cc(C(F)(F)F)nc2ccc(C)c(NC(=O)c3ccc(Cl)cc3)c12	0.3	1.2
CC(C)Sc1nnc(Cc2cc(=O)[nH]c(=O)[nH]2)n1-c1ccc(F)cc1	-0.7	0.49
O=C(CCCC(=O)Oc1ccccc1F)Nc1cccc2ccccc12	0	0.39
CCOC(=O)C(NC(=O)c1ccc(N2CC3CC(C2)c2cccc(=O)n2C3)c(NC(=O)c2cccnc2)c1)C(=O)OCC (stereo not drawn)	nt	-0.055
COc1ccc(OCCC(=O)NCc2ccccc2)cc1	-0.55	-0.19
O=C1NCCN1CCNS(=O)(=O)c1cccc2cccnc12	-0.15	-0.97
O=C1/C(=C/c2ccc(-c3cc(Cl)ccc3Cl)o2)C=C(c2ccccc2)N1c1ccc(Nc2ccccc2)cc1	nt	-0.59
Later entries
SMILES	AID504770	CapD inh
COC(=O)c1ccccc1NC(=O)COc1ccc2oc(-c3ccco3)cc(=O)c2c1	-0.85	0.72
Cn1c(O)c(Cc2c[nH]c3ccccc23)c(=O)n(C)c1=O	-1	1.7
CCCCCOc1ccc(C(=O)CCNC(Cc2c[nH]c3ccccc23)C(=O)O)cc1 (stereo not drawn)	nt	-0.33
O=C(Cn1cc(/C=C2/C(=O)Nc3ccccc32)c2ccccc21)NCC1CCCO1 (stereo not drawn)	2.6	0.52
Cc1ccc2c(c1)C(C)(c1ccccc1)CC(C)(C)N2C(=O)CN1CCOCC1 (stereo not drawn)	nt	1.1
CCOC(=O)Cc1csc(SCC(=O)/C(C#N)=C(\C)N)n1	-0.6	nt
OC1CCN(CC2CC=CCC2)CC1 (stereo not drawn)	0.5	0.34
C/C(=C/C(=O)C(F)(F)F)N1CCN(S(=O)(=O)c2cccc(Cl)c2)CC1	0	nt
COCCOC(=O)C1=C(N)C(C(=O)Nc2cccc(C#N)c2)SC1=Nc1ccc(C)cc1C (stereo not drawn)	1.2	nt
CN1CCN(C(=O)c2ccc3c(c2)S(=O)(=O)c2ccccc2C3=O)CC1	0	nt
CCOC(=O)N1CCC(n2c(SCC(=O)Nc3ccccc3C(=O)OC)nc3ccsc3c2=O)CC1	-0.55	-0.48
O=C(NC(=S)NC12CC3CC(CC(C3)C1)C2)c1ccccc1	1.3	0.74
CC(CCNS(=O)(=O)c1ccc(-c2cc(C(F)(F)F)no2)s1)N1CCCCCC1 (stereo not drawn)	-0.1	-0.035
CO/N=C(\CS(=O)Cc1ccc(OC)cc1)c1ccc(Cl)cc1 (stereo not drawn)	nt	0.32
O=C(OCc1ccccc1)n1nc(Br)nc1Br	nt	-0.64
CCn1cc(NC(=O)NCC2COc3ccccc3O2)c(=O)c2ccc(C)nc21 (stereo not drawn)	0.1	0.08
CC(C)(C)c1ccc(/C=C/C(=O)Nc2ncccn2)cc1	-1.1	-0.46
Cc1ccc(SCC(=O)Nc2nncs2)cc1	-1	1.8
CNC(=O)CN1CCNCC1	-1	nt
CCOC(=O)C1=NN(c2ccc([N+](=O)[O-])cc2)C2(S1)c1ccccc1C(c1ccc(Cl)cc1)=NN2c1ccccc1 (stereo not drawn)	nt	-0.39
S=C(NCc1cccs1)N1CCN(c2ncccn2)CC1	0.3	nt
Nc1ccc(Br)cc1C(=O)c1ccccc1	0	0.13
CN(C)/C=C/c1c(C#N)c(=O)ncn1N(C)c1ncc(C(F)(F)F)cc1Cl	nt	-0.58
CCN(CC)CCCNS(=O)(=O)c1cc(Br)ccc1Br	nt	0.08
CCc1nnc(SCC(=O)N(CC)Cc2ccccc2)c2cc3occc3n12	-0.15	0.14
CCNc1nc(NC(C)C)nc(NS(=O)(=O)c2ccc(C)cc2)n1	nt	-0.6
